HCMV NEC inh: inhibitors of HCMV UL50-UL53 nuclear egress complex interaction; HTRF UL50-UL53 interaction, normalized percent inhibition; inhibition, % (test concentration not listed); hit rate 0.15% among 190,000; AID 1918969;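 active = both replicates at 50% or more, plus weaker picks with an unusually low signal ratio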;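 note: stock transfer was 100 nL into about 20 µL; 0% = negative control wells and 100% = wells with untagged competitor protein; inactives centre near -12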
An asterisk follows results filed as active; & = joins results of further samples. This is a subset, so the mix of outcomes need not match the whole.

SMILES	HCMV NEC inh
CC1(C)OC2CO[C@@]3(COS(N)(=O)=O)OC(C)(C)OC3C2O1 (stereo not given in full)	-71
CCOc1ccc(NC(=O)CSc2c[nH]c3ccccc23)cc1	-11
Clc1cnc(-n2cccc2)nc1	-3
NS(=O)(=O)c1ccccc1N1C(=O)CCC1=O	-1
COc1ccc(NC(=O)C2CCCCC2C(=O)O)cc1 (stereo not given)	-10
CC1CCCCN1C(=O)CSc1nnc(-c2ccccc2)o1 (stereo not given)	11
CCCN1CC(CSC)C[C@@H]2c3cccc4[nH]cc(c34)C[C@H]21 (stereo not given in full)	50*
CC(C)N1CCc2c(sc(NC(=O)CCc3ccccc3)c2C#N)C1	-53
CCOc1cccc2cc(C#N)c(=O)oc12	-16
COc1ccc(Nc2ccnc3ccccc23)cc1	-50
O=C(CN1C(=O)S/C(=C/c2ccccc2)C1=O)Nc1ccccc1Cl	-8
Cc1ccc2c(C(=O)N3C[C@H]4CC[C@H]3C4)cc(-c3cnn(C(C)(C)C)c3)nc2c1	-25&-25
Cc1nn(-c2ccccc2)c2sc(C(=O)NCC3CCCO3)cc12 (stereo not given)	-3
Cn1cc(SCC(=O)NC2CCCCC2)c2ccccc21	-18
Clc1cccc(Cl)c1NC1=NCCC1	-3
Cc1ccc(C)c(-c2c(C)sc3ncn(C4CCN(C)C4=O)c(=O)c23)c1 (stereo not given)	-18
COc1ccc(-c2c(C)oc3cc(O)ccc3c2=O)cc1	-17
CCCCC[C@@H](O)/C=C/[C@H]1C[C@H]2C[C@@H]([C@@H]1C/C=C\CCCC(=O)O)C2(C)C	-32&-32
Cc1cc2ccccc2n1CCNS(C)(=O)=O	-9
CCN1CCc2c(OCC(=O)N3CCC(Cc4ccccc4)CC3)cccc2C1=O	-13
Cc1ccc2cc(CCNC(=O)C(C)C)c(=O)[nH]c2c1	-8
NC(=O)c1cncc(Br)c1	-21
Cc1ccc(NC(=O)CSc2n[nH]c(-c3ccc(Br)cc3)n2)cc1	-2
Cc1cc(C)c(C#N)c(N2CCOCC2)n1	-5
O=S(=O)(c1cccs1)N1CCCc2cccc(O)c21	-1
Further records:
SMILES	HCMV NEC inh
O=C(NCc1ccccn1)C1CCC(=O)N1C1CCCC1 (stereo not given)	7
O=C(Nc1ccc2ccccc2c1)C1CCCN(S(=O)(=O)c2ccccc2)C1 (stereo not given)	-9
O=C(/C=C/c1ccc(F)cc1)/C=C/c1ccc(F)cc1	-7
COCC(=O)NCc1ccc2c(c1)cc(C)n2C	-3
O=C(Oc1ccc(C=Nc2ccccc2Br)cc1)c1ccccn1	0
COc1ccc(CCNCC(O)COc2cccc(C)c2)cc1OC (stereo not given)	-18
CC1(C)CC(OC(=O)CC(=O)OC2CC(C)(C)NC(C)(C)C2)CC(C)(C)N1	-28
CN(c1ncnc2c1cnn2-c1ccccc1)C1CCCCC1	14
Cn1cc(SCC(=O)N2CCCc3ccccc32)c2ccccc21	-12
C[C@H](CCCO)[C@H]1CC[C@H]2[C@@H]3[C@H](O)C[C@H]4C[C@H](O)CC[C@]4(C)[C@H]3C[C@H](O)[C@]12C	-6&-6
Cc1ccc(C(=O)NC(=C(Cl)Cl)S(=O)(=O)c2ccc(C)cc2)cc1	6
O=C1CCCN2N=C(SCC(=O)NC3CCCCC3)SC2=N1	-4
NC(=O)c1ccsc1NC(=O)C1=COCCO1	-7
COc1ccc(-n2cccn2)c(-c2nnc3ccccn23)c1	-20&-20
Cc1cc(C=C2C(=O)C=CC2=O)cc(C)c1O	4
CC1CCN(C(=O)CSc2nnc3sc4ccccc4n23)CC1	-9
O=c1[nH]c2cc(Cl)ccc2c(O)c1-c1cccc(Oc2ccccc2)c1	-9
O=C(CSc1ncnc2sc3c(c12)CCCC3)Nc1ccccc1	-14
O=C(/C=C/c1ccc(F)cc1)Nc1nc2ccccc2s1	-21
O=C(c1ccc(F)cc1)N1CCCC(c2nc(-c3ccc(F)cc3)no2)C1 (stereo not given)	6
COc1ccc(CNC(=O)c2cc(NCc3nc[nH]c3C)cc(S(=O)(=O)N3CCCC3)c2)cc1	4
CCCC[C@H](C)C[C@H](O)/C=C/[C@H]1[C@H](O)CC(=O)[C@@H]1CCCCC(CC(=O)O)OC (stereo not given in full)	-21&-21
Clc1ccc(-c2csc3ncnn23)cc1	1&-10
COc1ccc(-c2nnc(NC(=O)c3ccccc3C)s2)c(OC)c1	5
Cc1nc2ccccc2n1CCCOc1ccccc1	0
Other records
SMILES	HCMV NEC inh
CC(NC(=O)C(C#N)=Cc1cccc(Br)n1)c1ccccc1 (stereo not given)	-4
Cc1onc(-c2c(F)cccc2Cl)c1C(=O)NC1CCSC1=O (stereo not given)	-8
CCCCc1nc2ccn(CC(=O)N(C)C)c(=O)c2n1Cc1ccc(-c2ccccc2-c2nn[nH]n2)cc1	25
Cc1cc(-n2c(SCc3ccccc3Cl)nc3n[nH]c(C)c3c2=N)ccc1Cl	4
CC12COC3(CN)CC1CCC32C (stereo not given)	-14
N#Cc1nc(-c2ccccc2Cl)oc1N1CCCC1	-1
c1ccc2c(N3CCOCC3)nnc(N3CCOCC3)c2c1	-15
O=C(CSc1ncnc2c1oc1ccccc12)NC1CCCCC1	62*
COc1ccc2cc(S(=O)(=O)n3nnc4ccccc43)ccc2c1	-8
CC(NCC(O)COc1ccc(Br)cc1)c1ccccc1 (stereo not given)	-4
O=C(O)C1CCCCC1C(=O)NCC1CCCO1 (stereo not given)	-10
CCCNC(=O)Nc1n[nH]c(Nc2ccc(Cl)cc2)n1	-12
O=C(NC1CCCC(C(F)(F)F)C1)c1ccncc1 (stereo not given)	5
CCCC(=O)Nc1nc2c(ncn2C2O[C@H]3COP(=O)(O)O[C@@H]3[C@@H]2OC(=O)CCC)c(=O)[nH]1 (stereo not given in full)	7
CCC(NCc1c(O)ccc2c3c(c(=O)oc12)CCC3)C(=O)O (stereo not given)	-16
COc1ccc(NS(=O)(=O)c2ccc(I)cc2)cc1N1CCN(C)CC1	7
COc1ccc(C(=O)NCc2nnc(SC/C=C/c3ccccc3)o2)cc1	-22
C#C[C@]1(OC(C)=O)CC[C@H]2[C@@H]3CCC4=CC(=O)CC[C@@H]4[C@H]3CC[C@@]21C	-11
CCC(C)(C)c1ccc(CC(C)CN2CC(C)OC(C)C2)cc1 (stereo not given)	-6
O=C(CC(NCc1ccco1)C(=O)O)Nc1ccccc1 (stereo not given)	1
CCCCCCCCCCCCCCCC(=O)OC[C@H](COP(=O)([O-])OCC[N+](C)(C)C)OC(=O)CCCC(=O)/C=C/C(=O)O	-13&-13
COC(=O)c1c(NC(=O)c2ccoc2)c2cc(NC(C)CSC)cnc2n1Cc1ccccc1 (stereo not given)	-8
CC(C)Cn1nc(C(=O)N2CCOCC2)c2c1CCC(NCc1ccc(F)cc1)C2 (stereo not given)	3
Cc1cc(C(=O)CSc2nnc3ccccn23)c(C)n1-c1ccccc1	-11
CCSC1=NCCN1S(C)(=O)=O	13&2
Continued.
SMILES	HCMV NEC inh
COC(=O)c1c(N)sc2c1CCCCC2	-4
Cc1cc(O)c(C=Nc2ccc(I)cc2)c(=O)o1	1
COc1ccccc1Nc1nc2ccccc2n1C	0
CCSc1nnc(NC(=O)COc2ccc(Cl)cc2)s1	-14
CCN1CCN(C(c2cccs2)C(C)NC(=O)c2cccc(OC)c2)CC1 (stereo not given)	6
CCCCC/C=C\C/C=C\CCCCCCCC(=O)O[C@@H](CO)COC(=O)CCCCCCCCCCCCCCCCC	-3
Cc1ccc(C(=O)Nc2cccc(C(F)(F)F)c2)cc1NC(=O)c1c[nH]c2cc(C(F)(F)F)ccc2c1=O	-12
Nc1nc2c([nH]c(=O)n2[C@H]2C[C@H](O)[C@@H](CO)O2)c(=O)[nH]1	-2&-2
CCN1C(=O)CCN(C2CCCC2)c2nc(Nc3ccc(C(=O)NC4CCN(C)CC4)cc3OC)ncc21	-6
Cc1ccc(/C=C2\SC(=S)N(CCCC(=O)O)C2=O)cc1	-76
O=c1c(C(F)(F)F)cccn1CCc1nc(-c2ccccc2)cs1	14
Cc1nc2ccccc2nc1SCC(=O)c1ccccc1	-12
OCC(CO)N[C@H]1C[C@](O)(CO)[C@@H](O)[C@H](O)[C@H]1O	3
Cc1cc2ccccc2n1CCNC(=O)c1ccc2c(c1)OCO2	2
CCN(CC)CCNC(=O)c1c(C)[nH]c(C=C2C(=O)Nc3ccc(F)cc32)c1C	-111&-32&-50&-71
COc1cccc(OCC(=O)NC(C)C)c1	4
CC(NC(=O)Cc1ccccc1)P(=O)(O)c1ccccc1 (stereo not given)	-24
CCc1cc(C(=O)N2CCc3c(c(C(=O)N4CCN(c5ccccc5)CC4)nn3CC)C2)n(C)n1	5
COc1ccc(-c2nn(-c3ccccc3)cc2C(=O)N2CCCCC2)cc1OC	-4
Cc1ccc(C(=O)Nc2cccc(C(F)(F)F)c2)cc1NC(=O)c1cnnc2ccccc12	-8
Fc1ccc(-c2nc3ccccc3[nH]2)cc1	-12
O=C(CSc1ncnc2ccccc12)Nc1cc(C(F)(F)F)ccc1Cl	-6
Cc1cc(N)n(-c2nc3ccccc3s2)n1	-18
CNC(=O)c1ccc2cc(C3(O)CCn4cncc43)ccc2c1 (stereo not given)	-66
Cc1ccc(C(=O)N/C(=C/c2cccs2)C(=O)NCc2ccccc2)cc1	-28
(further entries)
SMILES	HCMV NEC inh
O=C(CCn1c(=O)oc2ccccc21)NCc1ccccc1	-8
Cn1c(Cn2c(=O)sc3ccccc32)nnc1SC1CCCC1	-3
Cc1ccc(-n2nnnc2-c2ccc3ccccc3n2)cc1	-1&-11
COc1ccc(CC2SC(=Nc3ccc(Br)cc3)NC2=O)cc1 (stereo not given)	-17
COc1ccc(C(=O)c2ccc(C)cc2)c(O)c1	-66
CCCn1cc(S(=O)(=O)CC(=O)Nc2ccccc2)c2ccccc21	-2
CC[N+](C)(CC)CC(=O)Nc1c(C)cccc1C	-2
Cc1nc2c(-c3ccccc3)nn(-c3ccccc3)c2s1	-13
CC(=O)c1cc(CC(=O)NCc2cc(F)c(F)cc2F)cs1	4
COc1ccc2c(c1)N(C[C@H](C)CN(C)C)c1ccccc1S2	4
CC(C)Oc1cccc(-n2c(CCc3c[nH]c4ccc(Br)cc34)nc3ccccc3c2=O)c1	8
CCN1CCc2c(OCc3ccc(C)cc3)cccc2C1=O	-1
CC(C)C(=O)NCc1ccc2[nH]c3c(c2c1)CCCC3	12
Cc1ccc(F)cc1-c1cccc(C(=O)c2nccn2C)c1	-12
CN(C1CCCCC1)S(=O)(=O)c1ccc(C(=O)Nc2ccccc2)cc1	2
Cc1ccc(CC2SC(N)=NC2=O)cc1Cl (stereo not given)	7&-7
CSc1nc2ccc(NC(=O)COc3ccccc3)cc2s1	19
COc1c2ccoc2cc2oc(=O)ccc12	-23
O=C(O)Cn1c(Cc2ccccc2)nc2ccccc21	5&0
COC(=O)c1cccc2c(N=O)c(O)[nH]c12	-33
O=C(Nc1ccccc1-c1nc2ccccc2o1)c1cccs1	-3
Cc1oc2cc(O)ccc2c(=O)c1-c1ccc2c(c1)OCCO2	-24
O=C(O)Cc1ccc(-c2ccccc2)cc1	-20
CCCn1cc(SCC(=O)Nc2nnc(SCC)s2)c2ccccc21	-3
COc1ccc(/C=C\c2cc(OC)c(OC)c(OC)c2)cc1O	-30&-30

14 records drawn at random from those above:
SMILES	HCMV NEC inh
CC(=O)c1cc(CC(=O)NCc2cc(F)c(F)cc2F)cs1	4
COc1ccc2c(c1)N(C[C@H](C)CN(C)C)c1ccccc1S2	4
Cc1ccc(CC2SC(N)=NC2=O)cc1Cl (stereo not given)	7&-7
O=C(O)Cc1ccc(-c2ccccc2)cc1	-20
Cn1c(Cn2c(=O)sc3ccccc32)nnc1SC1CCCC1	-3
CCN1CCc2c(OCc3ccc(C)cc3)cccc2C1=O	-1
COC(=O)c1cccc2c(N=O)c(O)[nH]c12	-33
CCCn1cc(S(=O)(=O)CC(=O)Nc2ccccc2)c2ccccc21	-2
COc1ccc(/C=C\c2cc(OC)c(OC)c(OC)c2)cc1O	-30&-30
CC(C)C(=O)NCc1ccc2[nH]c3c(c2c1)CCCC3	12
Cc1ccc(-n2nnnc2-c2ccc3ccccc3n2)cc1	-1&-11
CC(C)Oc1cccc(-n2c(CCc3c[nH]c4ccc(Br)cc34)nc3ccccc3c2=O)c1	8
Cc1nc2c(-c3ccccc3)nn(-c3ccccc3)c2s1	-13
O=C(Nc1ccccc1-c1nc2ccccc2o1)c1cccs1	-3

(listing goes on)
SMILES	HCMV NEC inh
C[C@]12CCC(=O)C=C1[C@@H]1C[C@@H]1[C@H]1[C@@H]3[C@@H]4C[C@@H]4[C@]4(CCC(=O)O4)[C@@]3(C)CC[C@H]12	-10
CC(C)n1cnc2c(N(C)c3cccc(Cl)c3)nc(N(CCO)CCO)nc21	-10
O=c1[nH]c(O)c2c1c1c3ccccc3nc1n1cncc21	-70
Cc1cccc(Nc2nc(-c3ccncc3)cs2)c1	-22&-6&-6
O=C(Nc1ccc(S(=O)(=O)Nc2ccccc2Cl)c(Cl)c1)c1ccccn1	-8
COc1ccc(CN2C(=O)C(=O)c3cc(OC(F)(F)F)ccc32)cc1	5
Cc1ccc(C(=O)N2CCN(C(=O)c3ccc(C)c(C)c3)C(C)C2)cc1C (stereo not given)	-12
Nc1ncn(C2CC(O)C(CO)O2)c(=O)n1 (stereo not given)	-11
N[C@@H](C(=O)O)c1ccc(O)c(C(=O)O)c1	-4
O=C(CSCc1ccccc1)Nc1nnc(SCC(=O)N2CCCCCC2)s1	-25
N#Cc1ccc(C(=O)OCc2nc3ccccc3s2)cc1	-10
Cc1cccc(NS(=O)(=O)c2cccs2)c1C	-12
O=C(O)/C=C/C(=O)Nc1ccc(N2CCOCC2)cc1	0
COc1cc(S(=O)(=O)N2CCN(Cc3ccccc3)CC2)c(OC)cc1Cl	-6
COc1ccc(C(=O)COc2ccccc2C(N)=O)cc1	-2
Cc1noc(-c2ccc(CSCCC(=O)O)cc2)c1NC(=O)OC(C)c1ccccc1Cl (stereo not given)	-5
C=C(Br)Cn1c(CC(C)C)nc2ccccc21	-7

Bioassay records as filed in PubChem.
